# Ecoli growth: blocks Escherichia coli growth. OD600, 23 h; stronger effect = lower value. OD600 absorbance (test concentration not listed). 0.21% of 330,000 active. AID 1053175;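 active = OD600 absorbance below the run mean of sample wells minus 3.6 SD, in any replicate, cut at about 0.56 in these data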;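 also: stock transfer was 300 nL into about 60 µL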
# FGF22 binding: shifts melting point of recombinant human FGF22. recombinant FGF22 thermal shift, SYPRO orange fluorescence; percent of sucrose octasulfate shift, DMSO zero. 1.5% of 340,000 active. calls only at 9.99 µM. AID 651658. Q9HCT0;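 active = melting point raised past a set limit in the mean and every replicate; three in four hits are not shown here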
# UCH37 DUB inh: inhibitors of human deubiquitinating enzyme UCH37; Q9Y5K5; purified proteasome/UCH37, Ub-AMC cleavage fluorescence; inhibition, % (test concentration not listed); 0.33% of 330,000 active; AID 588478;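 active = mean of two replicates above 20%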;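 also: 0% = compound-free wells with enzyme and 100% = wells lacking proteasome; stock transfer was 100 nL into about 20 µL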
# Target sequence (Q9Y5K5 whole entry, looked up): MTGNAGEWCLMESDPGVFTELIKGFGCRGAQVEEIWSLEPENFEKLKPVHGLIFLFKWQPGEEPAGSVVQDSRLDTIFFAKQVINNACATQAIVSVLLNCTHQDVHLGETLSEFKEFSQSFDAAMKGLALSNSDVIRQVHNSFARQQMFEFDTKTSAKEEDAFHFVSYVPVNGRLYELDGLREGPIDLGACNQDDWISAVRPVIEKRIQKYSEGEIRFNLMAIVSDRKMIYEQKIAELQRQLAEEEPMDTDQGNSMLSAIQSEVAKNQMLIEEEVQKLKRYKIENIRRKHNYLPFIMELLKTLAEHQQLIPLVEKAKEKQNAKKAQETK
#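 Assay system: Proteasome-bound UCH37. Buffer or medium: pH 7.4 Tris-HCl (50 mM) with ovalbumin, ATP-MgCl2, DTT. Incubation: 30 min preincubation with enzyme, 25 min cleavage at room temperature. Measured by: fluorescence, ex 355 nm, em 460 nm. Read-out basis: percent inhibition. Control set: wells without proteasome as full block, compound-free enzyme plus substrate as uninhibited.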
# B2AR ag: agonists of human beta-2 adrenergic receptor inducing internalization. P07550. Am2.2-beta2AR cells, FAP receptor internalization, flow cytometry; reference of the scale not given here. response, % (concentration not given with the values). 0.43% of 340,000 active. AID 504454;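 active = response above a set limit, near 3 SD of response in nonfluorescent compounds, cut at about 42% in these data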;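 also: stock transfer was 100 nL into about 11 µL; a reference agonist was the positive control; negative values mostly stem from fluorescent compounds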
# Target sequence (P07550 whole entry, looked up): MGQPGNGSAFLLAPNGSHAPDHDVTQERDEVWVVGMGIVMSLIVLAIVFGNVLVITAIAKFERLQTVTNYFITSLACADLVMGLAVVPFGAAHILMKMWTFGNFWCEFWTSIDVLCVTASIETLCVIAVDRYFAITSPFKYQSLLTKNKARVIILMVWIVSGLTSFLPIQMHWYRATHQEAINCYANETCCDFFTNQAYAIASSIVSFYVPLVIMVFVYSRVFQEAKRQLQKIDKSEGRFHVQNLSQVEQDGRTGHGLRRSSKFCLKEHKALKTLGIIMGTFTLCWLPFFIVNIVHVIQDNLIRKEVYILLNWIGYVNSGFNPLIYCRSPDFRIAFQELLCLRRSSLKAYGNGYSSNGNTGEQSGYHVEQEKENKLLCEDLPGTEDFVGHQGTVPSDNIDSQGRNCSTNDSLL
# Ecoli rRNA inh: inhibitors of bacterial rRNA selective over humanized ribosomes. GFP signal change (wild-type ribosome), % (test concentration not listed). 1.6% of 350,000 active. AID 720706. E. coli WT GFP vs humanized-ribosome RFP mutants, fluorescence, 24 h; stronger effect = lower value; DMSO median 0, no signal -100;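 active = significant combined selectivity score with lowered wild-type GFP, culture density cut under 30%, mutant RFP and density less affected; inactive = any of these conditions unmet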; also: one replicate is shown; some compounds called inactive have numbers as strong as hits
# ALR H2O2 inh: inhibitors of human sulfhydryl oxidase ALR; purified ALR, DTT oxidation, H2O2 HRP-luminol luminescence; P55789; inhibition, % (no concentration beside the values); 3.8% of 290,000 active;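 active = mean and each replicate at 75% or more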;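 also: stock transfer was 7.5 nL into about 7.5 µL; 0% = neutral wells and 100% = wells with inactivated enzyme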
# Target sequence (P55789 whole entry, looked up): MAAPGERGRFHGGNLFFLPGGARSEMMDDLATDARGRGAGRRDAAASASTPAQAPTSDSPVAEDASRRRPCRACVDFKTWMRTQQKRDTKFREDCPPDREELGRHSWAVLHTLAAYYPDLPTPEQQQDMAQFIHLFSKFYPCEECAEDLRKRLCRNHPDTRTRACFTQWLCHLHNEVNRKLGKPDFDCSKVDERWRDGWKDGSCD
# HNF4A DNA FP: change in binding of human HNF4 alpha to DNA; 0.3% of 360,000 active; AID 1224865; P41235; activity change, % at 10 µM; HNF4a-FITC DNA binding, fluorescence polarization, 1 h; in the data active = activity change above about 30%, passing the limit was not always enough;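 also: controls were the assay level and a saturating level of protein; the project sought stronger binding though the title names inhibitors; some compounds called inactive have numbers as strong as hits; positive values seem to mean higher polarization but the record does not say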
# Ecoli rRNA inh OD600: recorded beside Ecoli rRNA inh, whose call it bears; OD600 change, %; measured here: OD600 growth;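 optical density of the mix in the first replicate; 0 = DMSO median and -100 = no signal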
# Ecoli rRNA inh RFP: recorded beside Ecoli rRNA inh, whose call it bears; RFP signal change, %; measured here: RFP humanized mutant strains;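 first replicate; 0 = DMSO median and -100 = no signal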
# Active calls of the source: *; i = inactive; x = not tested or not shown. This is a subset; rates above refer to the full screens.
SMILES,Ecoli growth,FGF22 binding,UCH37 DUB inh,B2AR ag,Ecoli rRNA inh,Ecoli rRNA inh OD600,Ecoli rRNA inh RFP,ALR H2O2 inh,HNF4A DNA FP
O=C(Nc1ccc(F)c(Cl)c1)c1cc(-c2ccco2)on1,0.65,i,0.1,-16,2,6,-1.0,x,8.3
Cc1nn(CC(=O)OCCOc2ccc(Br)cc2)c(C)c1[N+](=O)[O-],0.68,i,6.0,6,-25*,4.3*,6.3*,-4,0.1
O=C(CCc1c[nH]c2ccccc12)NC1CC1,0.72,x,3.1,-4,x,x,x,24,-1.4
Cc1cnc(C(=O)Nc2cc(S(=O)(=O)N3CCOCC3)ccc2N2CCN(C)CC2)cn1,0.73,i,2.0,39,x,x,x,x,4.2
N/C(=N\NC(=O)c1cccs1)c1cc2cc(Cl)ccc2oc1=O,0.7,i,0.6,5,-16,-1,13,x,-2.8
Cc1ccc2cc(/C=C/C(=O)c3ccco3)c(Cl)nc2c1,0.68,i,4.2,56*,-15,20,5.8,11,6.8
COc1ccc(/C=C2\SC(N3CCCCC3)=NC2=O)cc1OC,0.68,i,1.4,-33,-18,-10,1.6,-13,-4.8
CCSc1ccc(/C(N)=N/OC(=O)c2cccs2)cn1,0.73,i,0.9,-13,-4,-2,0.9,-1,-2.7
O/N=C/c1ccc2ccccc2c1,x,x,x,-1,16,5,-0.8,-59,-7.4
COC(=O)CSc1nnc(CNc2nc(-c3ccccc3)cs2)n1C,0.7,x,3.6,-1,x,x,x,-42,-0.5
O=C(CSc1nnc2ccccn12)NNC(=O)c1ccccc1F,0.7,i,0.4,5,18,8,2.1,x,1.3
N#Cc1c2c(c(-c3ccco3)[nH]c1=O)CCCC2,0.67,x,0.6,20,x,x,x,0,-23
O=C(O)c1ccc(S(=O)(=O)N2CCOCC2)o1,0.63,i,1.0,0,4,10,-3.4,-6,-1.6
Cc1ccc2nc(NC(=O)c3ccc(-c4nc5ccccc5s4)s3)sc2c1,0.76,i,-10,-3,13,18,-2.0,1,69*
Cn1c(=O)c2c(nc(N3CCN(c4ccccn4)CC3)n2Cc2ccccc2Cl)n(C)c1=O,0.73,x,1.7,-16,x,x,x,-7,1.0
O=C(O)c1ccc(CSCc2c(F)cccc2Cl)o1,0.76,x,3.0,-6,x,x,x,x,-9.2
Cc1cc2c(cc1C)C(c1ccsc1)CC(=O)N2 (stereo unspecified),0.67,i,2.0,3,14,7,6.4,-8,2.2
COc1cc(CN2CCC(n3nccc3NC(=O)C3CCOC3)CC2)ccc1F (stereo unspecified),0.65,i,0.4,3,24,13,2.5,-1,-3.6
Cc1cccc(NC(=O)CCN2C(=O)C3C4CCC(C4)C3C2=O)c1C (stereo unspecified),0.69,x,1.3,-10,x,x,x,1,0.4
COc1ccc(N2CC(C(=O)N(CC(C)C)c3c(N)n(Cc4ccccc4)c(=O)[nH]c3=O)CC2=O)c(OC)c1 (stereo unspecified),0.62,i,-0.3,1,4,16,-2.7,-9,3.8
CC(=O)c1coc2ccc(OCC(=O)O)cc12,0.7,x,2.3,0,x,x,x,-12,0.5
Cc1ccc(S(=O)(=O)N2CCN(C(=O)COC(=O)COc3ccc(Cl)cc3C)CC2)c(C)c1,0.69,i,0.2,-7,1,5,-0.7,x,-3.0
CCOC(=O)Cn1c(=N)n(Cc2ccccc2F)c2ccccc21,0.65,x,0.6,-9,x,x,x,-4,-2.0
O=[N+]([O-])c1ccc(C2=Nc3cc(Cl)ccc3OC2)cc1,0.66,i,-0.6,6,-11,-2,18,6,-3.0
COc1ccc(C2c3[nH]c4ccccc4c3CCN2C(=O)Cc2nonc2C)c(F)c1 (stereo unspecified),0.69,i,2.0,-3,-7,-9,1.8,x,-3.1
CC(C)c1ccc(NC(=O)Nc2nc(C(N)C(C)C)cs2)cc1 (stereo unspecified),x,i,x,x,-59,-78,-19,x,3.5
CCn1c(/C=C/c2ccccc2[N+](=O)[O-])nc2ccccc2c1=O,0.71,i,0.2,0,3,9,-0.1,-9,-1.2
COCCN(C(=O)CSc1nnc(Nc2ccc(C)cc2)s1)c1c(N)n(CC(C)C)c(=O)[nH]c1=O,0.72,x,6.4,-3,-4,-7,-0.6,5,-0.1
Cn1c(O)c(C=Nc2ccc(N3CCOCC3)cc2)c(=O)n(C)c1=S,0.68,x,34*,-1,x,x,x,x,0.4
Cc1ccccc1NS(=O)(=O)c1cc(C(=O)Nc2cccnc2)ccc1C,0.72,i,-1.4,0,-25,-22,-0.8,x,1.8
O=c1cc(N2CCCCCC2)[nH]c(=O)n1-c1ccccc1Cl,0.73,x,0.4,1,x,x,x,27,-3.2
CC(Oc1ccccc1)C(=O)Nc1nnc(S(=O)(=O)Nc2ccccc2)s1 (stereo unspecified),0.74,i,6.3,5,-13*,-24*,-5.5*,9,4.5
CC(C)c1ccc(NC(=O)C2(C)Cc3c(-c4ccccc4)ccnc3O2)cc1 (stereo unspecified),x,i,x,x,10,-14,-0.7,x,-2.7
O=C(CSc1ccc2c(c1)OCCO2)NCCc1ccc(Cl)cc1Cl,x,x,2.8,7,x,x,x,-15,3.7
CC(C)CCN1C(=O)c2ccc(C(=O)N3CCCCC3)cc2C1=O,0.68,i,0.5,-6,-3,2,0.4,-4,3.5
CCOC(=O)N1CCN(C(=O)C2CCN(S(=O)(=O)c3c(C)cc(C)cc3C)CC2)CC1,0.68,x,3.7,-6,x,x,x,-5,2.5
O=S(=O)(NCc1cccnc1)c1ccc2c(c1)OCCO2,0.71,x,0.4,15,x,x,x,-7,5.0
CCn1c(CNC(=O)c2cc(OC)c(OC)c(OC)c2)cc2cc(C)ccc21,0.7,i,0.5,-9,15,2,-1.2,14,2.5
Cc1cc(C)c2c(=O)c3c(oc2c1)C(=O)N(CCO)C3c1cccc(O)c1 (stereo unspecified),0.68,x,2.2,-15,x,x,x,-3,-2.1
CCN(CC)S(=O)(=O)c1ccc(NC(=O)c2cc(C(=O)OC)cc([N+](=O)[O-])c2)cc1,0.7,i,4.4,2,0,8,-5.5,-7,0.5
CC(OC(=O)COc1ccccc1[N+](=O)[O-])C(=O)Nc1ccc(N2CCOCC2)cc1 (stereo unspecified),0.68,i,3.6,-3,-2,-1,0.3,76*,-1.2
CCCCOc1ccc(C(=O)NCCN2CCC(n3c(=O)[nH]c4ccccc43)CC2)cc1,x,i,x,x,-45*,-33*,-15*,x,3.8
Cc1ccc(Cl)c2sc(NC(=O)C3=COCCO3)nc12,0.7,i,1.9,14,-12,-8,0.3,8,-0.8
CC1=NN(C(=O)c2ccccc2Br)C(O)(c2ccc(Cl)cc2)C1 (stereo unspecified),0.7,i,2.5,2,2,2,-1.6,14,-1.0
CCCCn1c(SCC(=O)NC(C)(C)C)nnc1-c1ccco1,0.68,i,0.6,-3,1,-5,-4.3,-6,-3.3
CCc1nc2ccc(C(=O)N3CCN(c4ccccc4)CC3)cn2c1N(C)CCC(C)C,x,i,x,x,13,23,1.2,x,1.5
C=CCSc1nnc(CNC(=O)c2ccc(Cl)cc2)n1CC,0.65,i,3.4,-8,10,11,1.0,x,-0.5
CN(Cc1ccccc1)C1=CC(=[N+]2CCCCC2)CC(C)(C)C1,0.64,i,12,2,-51*,-30*,-15*,-14,0.5
Cc1ccc(N(Cc2cc(=O)[nH]c3ccccc23)C(=O)CCl)cc1,x,i,x,19,4,3,2.3,3,1.0
CCOC(=O)c1ccc(-c2ccc(-c3cc(=O)oc4cc(OC)c(OC)c(OC)c34)cc2)cc1,0.72,i,-12,3,18,14,3.2,x,1.2
CC(C)(C)OC(=O)N1CCC[C@@H]1CO,x,x,4.5,-2,x,x,x,-7,-1.2
COc1ccc(Cn2c(=O)[nH]c3cc(C(=O)N4CCN(c5ccc(OC)cc5)CC4)ccc3c2=O)cc1,0.71,x,-0.7,-1,x,x,x,-2,3.9
Cc1ccc(-n2nc(C(=O)O)cc2-c2ccccc2)cc1,0.76,x,-2.5,-3,x,x,x,-3,-0.3
NC(=S)NN=C1CCC(C2CCCCC2)CC1 (stereo unspecified),0.66,i,0.7,5,-45*,-50*,-14*,x,3.5
COc1cc(NC(=O)COc2ccc(F)cc2)nc(OC)n1,0.69,i,-1.7,0,3,0,-6.5,-2,3.3
Cc1cccc(-n2ncc3c(N4CC(C)CC(C)C4)ncnc32)c1 (stereo unspecified),0.72,i,4.4,-8,-1,0,-1.3,-11,-1.9
CS(=O)(=O)c1ccccc1-c1nnc(NC(=O)Cc2ccccc2)o1,0.71,i,5.2,6,-5,-4,-2.6,-2,3.8
CC(C)c1nnc(NC(=O)COc2ccc3ccccc3c2)s1,0.69,i,5.0,-1,11,10,0.8,-14,0.7
CC1(C)C2CCC1(CS(=O)(=O)N1CCCc3ccccc31)C(=O)C2 (stereo unspecified),0.75,x,4.8,8,x,x,x,-3,1.8
COc1ccccc1N1CC(C(=O)OC(C)C(=O)N2CCCc3ccccc32)CC1=O (stereo unspecified),0.72,x,1.3,5,x,x,x,-6,-1.4

# (cont.)
SMILES,Ecoli growth,FGF22 binding,UCH37 DUB inh,B2AR ag,Ecoli rRNA inh,Ecoli rRNA inh OD600,Ecoli rRNA inh RFP,ALR H2O2 inh,HNF4A DNA FP
CCOC(=O)C1(Cc2cccc(OC)c2)CCN(C(C)COC)CC1 (stereo unspecified),0.66,x,-0.7,-4,x,x,x,2,5.7
O=C(O)c1cc(-c2ccccc2)on1,0.69,i,-1.3,7,10,5,6.8,-5,2.0
CC1CCCN(C(=O)c2ccc3nc[nH]c3c2)C1 (stereo unspecified),0.72,x,1.5,-3,x,x,x,-8,0.7
CCc1nc(N2CCOCC2)c(C#N)c2c1CCCC2,0.68,x,-75,1,x,x,x,-1,0.6
CCCn1nc2cc(C(=O)NCc3ccccc3OC)ccc2c1OCC,0.7,i,-36,-3,5,3,-6.6,-8,4.4
COCCNC(=O)C1(C)CCCN(C(=O)c2cccc(C(F)(F)F)c2)C1 (stereo unspecified),x,i,x,x,6,16,2.7,x,0.5
Nc1ccc(Oc2c(Cl)cccc2Cl)nc1,0.66,i,4.4,5,8,3,5.2,-15,3.9
CCOc1ccc(NC(=O)NCC2CCN(Cc3ccc(F)cc3)CC2)cc1,0.67,i,1.9,-8,20,8,2.1,-12,-1.0
O=C1[C@@H]2[C@@H]3C[C@@H]([C@H]4ON=C(c5ccc(Cl)cc5Cl)[C@@H]34)[C@@H]2C(=O)N1C1CCCCC1,0.72,i,4.9,-4,x,x,x,-9,4.8
COc1ccc(-c2[nH][nH]c(=O)c2NC(=O)c2ccccc2Br)cc1,x,i,x,x,-5,4,4.7,x,3.9

# By substructure, those above containing a tert-butyl group (two)
SMILES,Ecoli growth,FGF22 binding,UCH37 DUB inh,B2AR ag,Ecoli rRNA inh,Ecoli rRNA inh OD600,Ecoli rRNA inh RFP,ALR H2O2 inh,HNF4A DNA FP
CCCCn1c(SCC(=O)NC(C)(C)C)nnc1-c1ccco1,0.68,i,0.6,-3,1,-5,-4.3,-6,-3.3
CC(C)(C)OC(=O)N1CCC[C@@H]1CO,x,x,4.5,-2,x,x,x,-7,-1.2

# A few values from the list:
# In Ecoli rRNA inh RFP, `CC(C)CCN1C(=O)c2ccc(C(=O)N3CCCCC3)cc2C1=O` has 0.4
# In ALR H2O2 inh, `CCOC(=O)N1CCN(C(=O)C2CCN(S(=O)(=O)c3c(C)cc(C)cc3C)CC2)CC1` has -5
# In Ecoli growth, `Cc1cc(C)c2c(=O)c3c(oc2c1)C(=O)N(CCO)C3c1cccc(O)c1` (stereo unspecified) has 0.68
